Screening data: PubChem BioAssay, National Center for Advancing Translational Sciences (NCATS)
nsP2pro primary – Primary qHTS for inhibitors of NSP2Pro chikungunya virus (CHIKV) | Potency, µM (titrated, usually from 24.9 µM), for inactives: at the highest dose activity change, negative = inhibition, hits mostly inhibitors | hit rate 1.1% among 31,000 | AID 1964107, 2024 | Polyprotein P1234 (Chikungunya virus (strain S27-African prototype)), Q8JUX6 | FRET peptide cleavage, nsP2pro, fluorescence 1 h; active means well fitted inhibition curve with a large enough effect; inconclusive means small, poorly fitted or top-dose-only effect; inactive means no such curve, though single readings can be large or run the other way; note: nearly all actives have a fitted effect of over 60% in size; a reference inhibitor and vehicle were the controls
Target sequence (Q8JUX6 whole entry, looked up): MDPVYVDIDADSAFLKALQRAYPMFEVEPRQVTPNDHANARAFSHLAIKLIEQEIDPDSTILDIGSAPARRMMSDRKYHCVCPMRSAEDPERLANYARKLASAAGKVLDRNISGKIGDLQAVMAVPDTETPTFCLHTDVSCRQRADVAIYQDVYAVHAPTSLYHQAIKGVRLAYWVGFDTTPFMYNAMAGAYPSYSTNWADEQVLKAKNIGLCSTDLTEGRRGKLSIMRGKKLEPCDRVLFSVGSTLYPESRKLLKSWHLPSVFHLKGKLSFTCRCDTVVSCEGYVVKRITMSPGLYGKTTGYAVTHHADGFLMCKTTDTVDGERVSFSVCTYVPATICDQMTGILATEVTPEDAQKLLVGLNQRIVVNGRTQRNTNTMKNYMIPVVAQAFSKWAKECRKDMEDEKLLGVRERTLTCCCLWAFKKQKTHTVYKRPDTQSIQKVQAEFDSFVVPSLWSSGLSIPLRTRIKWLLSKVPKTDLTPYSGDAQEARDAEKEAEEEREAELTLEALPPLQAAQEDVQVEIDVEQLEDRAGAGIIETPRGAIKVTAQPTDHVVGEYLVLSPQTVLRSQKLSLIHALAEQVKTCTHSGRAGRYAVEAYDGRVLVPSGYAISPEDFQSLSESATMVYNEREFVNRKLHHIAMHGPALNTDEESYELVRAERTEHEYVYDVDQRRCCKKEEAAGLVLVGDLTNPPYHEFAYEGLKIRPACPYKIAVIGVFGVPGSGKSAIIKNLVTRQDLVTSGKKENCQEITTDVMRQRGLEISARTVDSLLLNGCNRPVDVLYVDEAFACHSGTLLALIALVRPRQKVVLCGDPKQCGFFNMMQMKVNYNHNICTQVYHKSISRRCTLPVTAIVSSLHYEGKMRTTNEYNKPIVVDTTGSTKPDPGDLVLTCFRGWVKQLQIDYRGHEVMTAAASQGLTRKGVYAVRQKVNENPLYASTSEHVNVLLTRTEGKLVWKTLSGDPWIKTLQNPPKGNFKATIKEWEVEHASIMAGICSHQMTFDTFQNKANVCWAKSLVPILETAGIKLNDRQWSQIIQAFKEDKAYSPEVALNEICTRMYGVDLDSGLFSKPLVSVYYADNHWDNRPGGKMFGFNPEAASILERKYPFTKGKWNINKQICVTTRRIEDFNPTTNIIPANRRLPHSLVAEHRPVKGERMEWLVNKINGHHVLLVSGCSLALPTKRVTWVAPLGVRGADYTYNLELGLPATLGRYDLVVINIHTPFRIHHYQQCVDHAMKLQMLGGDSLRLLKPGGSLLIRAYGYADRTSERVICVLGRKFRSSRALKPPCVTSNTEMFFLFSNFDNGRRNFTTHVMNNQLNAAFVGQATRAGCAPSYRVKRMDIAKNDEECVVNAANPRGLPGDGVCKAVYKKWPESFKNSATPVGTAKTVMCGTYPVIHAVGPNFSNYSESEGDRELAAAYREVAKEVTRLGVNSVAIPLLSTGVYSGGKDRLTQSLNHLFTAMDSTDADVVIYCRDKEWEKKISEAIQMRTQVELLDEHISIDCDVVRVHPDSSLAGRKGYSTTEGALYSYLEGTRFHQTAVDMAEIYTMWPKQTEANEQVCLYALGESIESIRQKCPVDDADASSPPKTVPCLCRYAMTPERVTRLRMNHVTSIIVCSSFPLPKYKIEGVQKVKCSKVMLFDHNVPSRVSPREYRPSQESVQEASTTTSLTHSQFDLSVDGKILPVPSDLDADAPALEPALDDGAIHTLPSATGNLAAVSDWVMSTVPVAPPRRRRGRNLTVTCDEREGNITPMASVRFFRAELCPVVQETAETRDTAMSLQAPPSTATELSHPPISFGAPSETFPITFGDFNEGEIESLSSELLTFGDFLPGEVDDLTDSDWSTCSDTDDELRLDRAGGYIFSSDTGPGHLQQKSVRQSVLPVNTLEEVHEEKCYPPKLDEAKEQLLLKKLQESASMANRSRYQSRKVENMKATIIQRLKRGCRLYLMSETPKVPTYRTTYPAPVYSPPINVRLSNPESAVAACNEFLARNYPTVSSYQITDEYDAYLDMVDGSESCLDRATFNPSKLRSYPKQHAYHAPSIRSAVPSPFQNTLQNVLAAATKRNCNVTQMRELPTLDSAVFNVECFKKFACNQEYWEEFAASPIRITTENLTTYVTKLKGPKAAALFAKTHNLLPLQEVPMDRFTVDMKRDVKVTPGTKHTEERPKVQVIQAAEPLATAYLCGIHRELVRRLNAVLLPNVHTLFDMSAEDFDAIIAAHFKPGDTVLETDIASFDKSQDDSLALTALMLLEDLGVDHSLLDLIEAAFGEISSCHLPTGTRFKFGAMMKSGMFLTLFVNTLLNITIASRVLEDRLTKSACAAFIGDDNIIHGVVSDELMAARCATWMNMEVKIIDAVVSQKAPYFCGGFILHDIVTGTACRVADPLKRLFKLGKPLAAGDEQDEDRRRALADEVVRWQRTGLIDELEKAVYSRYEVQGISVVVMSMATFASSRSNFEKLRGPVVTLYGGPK
An asterisk follows results filed as active; i = inactive; ? = inconclusive; & = joins results of further samples; [ ] = dose if it differs, or a comment. % is set by controls: 0 for no effect and ±100 for the full control effect; potency is the fitted concentration of half-maximal effect. A portion of the library (hit frequency here may not be typical).

Structure	nsP2pro primary
Clc1ccc(Nc2c(-c3cccs3)nc3ccc(Cl)cn23)cc1	-11%
CCN1CCN(C(=O)c2ccc3nccn3c2)CC1	i
Cc1cc2c(s1)c1cnn(Cc3ccc(C)c(F)c3)c(=O)c1n2C	1%
COc1ccc(C2Nc3ccccc3C(=O)N2Cc2ccco2)cc1COc1ccc(NC(C)=O)cc1 (stereo not drawn)	-21%
CCOC(=O)C1CCC(CN(Cc2ccccc2)S(=O)(=O)c2ccc(Cl)cc2)CC1 (stereo not drawn)	-23%
CS(=O)(=O)c1ccc([C@@H](C[C@H]2CCC(=O)C2)C(=O)Nc2cnccn2)cc1Cl	10%
Cc1ccc2[nH]c3c(=O)n(CC(=O)NCc4ccco4)ncc3c2c1	-34%
O=C(Nc1ccc(S(=O)(=O)Nc2nccs2)cc1)c1cccnc1	i
COc1ccc(Cl)cc1NC(=O)c1ccc2nc(Cc3ccccc3)oc2c1	-8%
Nc1ncc(-c2cccc(-c3nn4c(=O)cc(N5CCNCC5)nc4s3)c2)cn1	i
COc1ccc(C(=O)N2CC(=O)Nc3ccc(C)cc3C2c2ccccc2)c(OC)c1 (stereo not drawn)	-13%
Cc1cc(C(=O)N(C)CC2(C)CCOCC2)nn1C	4%
COc1ccccc1-c1noc(-c2ccc(NCc3ccccc3)c([N+](=O)[O-])c2)n1	-25%
COCC(=O)NC[C@H]1CCN(Cc2ccccn2)C[C@H]1N(C)C	1%
C/C=C1/[C@H](O[C@@H]2O[C@H](CO)[C@@H](O)[C@H](O)[C@H]2O)OC=C(C(=O)OC)[C@H]1CC(=O)O[C@@H]1O[C@H](CO)[C@@H](O)[C@H](O)[C@H]1O	-8%[10 µM]
O=c1[nH]cnc2ccccc12	-8%
COc1ccc(-n2c(CN)n[nH]c2=O)cc1OC	2%
CN1CCCCC1CCN1c2ccccc2Sc2ccc(S(C)=O)cc21 (stereo not drawn)	0%
Cc1cccc(Cn2cc(S(=O)(=O)c3cccc(Cl)c3)c(=O)c3cc(F)c(N4CCOCC4)cc32)c1	-15%
COc1ccc(-c2cn3c(n2)sc2cc(C(=O)NCCCN4CCCCCC4)ccc23)cc1	119%[activator]
Cc1oc(-c2ccc(Cl)cc2)nc1CS(=O)CC(=O)N1CCN(c2cccc(C(F)(F)F)c2)CC1 (stereo not drawn)	-14%
Cc1cc(C)nc(-n2nc(C)c3c2N(C)C(=O)CC3c2ccc(Cl)cc2)n1 (stereo not drawn)	-10%
Cc1nc(CN2Cc3nc(OCc4ccc(F)cc4)ccc3OCC2=O)cs1	-3%[39.2 µM]
Cc1csc(CNc2ncnc3ccc(-c4ccc5c(ccn5C)c4)cc23)c1	i
CN1C[C@@H](NC(=O)NC2CCCCC2)C[C@H]1c1nc(-c2cnccn2)no1	-4%[39.2 µM]
O=S(=O)(c1ccc(S(=O)(=O)n2cnc3ccccc32)cc1)N1CCCCCC1	0%[10 µM]
O=C1NC2(CCN(Cc3ccccn3)C2)Oc2ccccc21 (stereo not drawn)	i
CCn1cc2c(n1)-c1c(oc(C(=O)Nc3cccc(C)c3C)c1C)CC2	-26%
Cc1cc(C)n2ncc(C(=O)NC(C)C)c2n1	?
Cc1ccc2nc(N3CCC(C(=O)N4CCN(c5cccc(C)c5C)CC4)CC3)[nH]c2c1	-4%
Cc1c(Cl)cccc1-n1c(SCC(=O)NCc2ccccc2)nc2n[nH]c(C)c2c1=N	20%
COc1ccc(NC(=O)N2C[C@@H]3C[C@H](C2)c2c(NC(=O)CSC)ccc(=O)n2C3)cc1	-2%
Cc1cccc(N2CCN(C(=O)CS(=O)(=O)c3cccc4nsnc34)CC2C)c1 (stereo not drawn)	-23%
Cc1cc(C)nc(Nc2nnc(N3CCN(c4cccc(C(F)(F)F)c4)CC3)s2)c1	?
CC(C)Oc1ccc(-c2ccc(=O)n(CC(=O)NCCc3ccccc3)n2)cc1	1%
Cc1cc(=O)n(Cc2ccc(Cl)cc2)c2c1c(C)nn2-c1ccccc1	-10%
O=C(Oc1cccc2cccnc12)c1ccccc1	-4%
CCN1CCN(C(c2ccc(C)cc2)c2sc3nc(-c4ccco4)nn3c2O)CC1 (stereo not drawn)	2%
Cc1ccc(OCCn2c(CCNC(=O)C3CCOCC3)nc3ccccc32)cc1	-8%
CN(CCc1cccs1)c1ncnc2ccc(-c3ccc4c(c3)OCO4)cc12	-3%
Cc1c(Cl)cccc1NC(=O)Cn1cnc(S(=O)(=O)N2CCCC2)c1	12%
CCOc1ccc(CCNC(=O)c2cc3ccccc3n2Cc2cccc(C)c2)cc1OCC	-6%
CC[C@@H](C(=O)O)[C@@H]1O[C@@H]([C@@H](C)[C@H](O)[C@H](C)C(=O)[C@H](CC)[C@H]2O[C@]3(C=C[C@@H](O)[C@]4(CC[C@@](C)([C@H]5CC[C@](O)(CC)[C@H](C)O5)O4)O3)[C@H](C)C[C@@H]2C)[C@@H](C)C[C@@H]1C	-2%
C=CC1C(OC2OC(CO)C(O)C(O)C2O)OC=C2C(=O)N3C(C(=O)O)Cc4c([nH]c5ccccc45)C3CC21 (stereo not drawn)	?
CCC[C@@H]1C[C@@H](C(=O)N[C@@H](C2O[C@H](SC)[C@H](O)[C@@H](O)[C@H]2O)[C@H](C)Cl)N(C)C1 (stereo partly drawn)	-4%
COc1cccc(C2c3c(ncn(-c4ccccc4Cl)c3=N)Oc3ccc4ccccc4c32)c1 (stereo not drawn)	1%
COCc1cc(C)nc2sc3c(c12)NC(c1ccccc1C(=O)O)N(c1cccc(C(F)(F)F)c1)C3=O (stereo not drawn)	-7%
C=C1C(O)C(OC(=O)c2ccccc2)C2C(C)(C(=O)O)CCCC2(C)C1CC/C(C)=C\CO (stereo not drawn)	-3%[10 µM]
COc1cccc(-c2nc(CS(=O)(=O)CC(=O)NCCCc3ccccc3)c(C)o2)c1	-20%
C=C1C(=O)O[C@@H]2/C=C(\CO)CC/C=C(\CO)[C@H](OC(C)=O)C(OC(=O)C(C)CC)C12 (stereo partly drawn)	-3%[10 µM]
Cc1cc(C)cc(N(CC(=O)NCCc2ccc(Cl)cc2)S(=O)(=O)c2c(C)noc2C)c1	-26%
O=Cc1ccc(O)cc1	5%
COc1cc(SC)ccc1C(=O)Nc1ccc(S(=O)(=O)Nc2nccc(C)n2)cc1	-24%
CN1CCN(S(=O)(=O)c2cc(C(=O)O)cc(-c3ccncc3)c2)CC1	5%
Cc1occc1-c1ccc2ncnc(NCCc3cnc[nH]3)c2c1	i
C=C[C@@]1(C)C=C2C(=O)C(O)=C3[C@](C)(C(=O)O)CC[C@@H]4C[C@]34[C@]2(O)C(=O)C1	-26%
COC[C@H]1C[C@@H](NC(=O)Nc2ccc(F)cc2)[C@H](O)[C@@H]1O	-18%[39.2 µM]
Cc1ccc(S(=O)(=O)Nc2cncc(C(=O)Nc3nc(-c4ccccc4)cs3)c2)cc1	i
C=C(C)C1CCC2(C(=O)O)CCC3(C(=O)O)C(CCC4C5(C)CCC(O)C(C)(C(=O)O)C5CCC43C)C12 (stereo not drawn)	-3%[10 µM]
COc1ccc(NC(=O)c2cc3c(=O)n(C)c4cc(Cl)ccc4c3s2)cc1Cl	-15%

Other records
Structure	nsP2pro primary
CC(C)NC(C)Cc1ccc(I)cc1 (stereo not drawn)	-5%
COC(=O)c1cc2c(C(F)(F)F)cc(-c3ccccc3)cc2n1O	128%[activator]
O=C(Nc1cccc(C(F)(F)F)c1)c1cccc(C(=O)Nc2cccc(C(F)(F)F)c2)c1	-5%
COc1cc(C(=O)N[C@@H]2[C@@H](c3ccccc3)[C@@H](CO)N3CCCC[C@H]23)cc(OC)c1OC	-8%
CC(=O)N1CCN(c2nc3c(s2)CC(C(=O)NCc2ccc(C(C)C)cc2)CC3)CC1 (stereo not drawn)	-16%
CCOC(=O)N1CCC(N[C@@H]2CC[C@@H]2NC(=O)CCn2cncn2)CC1	0%
COc1cc(F)c(-c2nccn2CC(O)c2ccccc2)cc1OC (stereo not drawn)	i
CCN(CC)C(=O)[C@]1(c2ccccc2)C[C@H]1CN	-8%
NC(N)=Nc1nc(CSCC/C(N)=N/S(N)(=O)=O)cs1	-6%
Cc1ccc(OCCn2c(CCNC(=O)c3ccc4cc[nH]c4c3)nc3ccccc32)cc1	-11%
CCSc1nnc(NC(=O)c2cccn(Cc3ccccc3Cl)c2=O)s1	-15%
CCOc1ccccc1NC(=O)c1c(NC(=O)Cc2ccc(OC)cc2)sc2c1CCC2	-12%
C[C@@H]1O[C@@H](OC(=O)Cc2ccccc2)[C@H](O)[C@H](O)[C@H]1O	-3%
CCOc1ccc(CCNC(=O)c2cc3sccc3n2Cc2ccc(F)cc2F)cc1OCC	2%
CC(C)(C)OC(=O)CC(=O)NNC(=O)c1nc2ccccc2[nH]1	i
COC(=O)C1=CO[C@@H](O[C@@H]2O[C@H](CO)[C@@H](O)[C@H](O)[C@H]2O)[C@@H]2[C@@](C)(O)[C@@H](O)C[C@]12O	-1%[10 µM]
CCn1c(=O)c2sccc2n2c(CCC(=O)NCc3ccc(Cl)cc3)nnc12	-19%
CC(=O)NCCCC(=O)N1CCC2(CC1)CN(C(C)=O)Cc1ccccc1O2	-8%
CC(C)CCNC(=O)c1ccc2c(c1)NC(=O)C(C(C)C)N2 (stereo not drawn)	-20%
C=CCNC(=O)C[C@@H]1CCN(C(=O)c2cccnc2)C[C@@H]1CC	-4%[39.2 µM]
C[C@@H]1C(=O)OC2[C@H](O)[C@]34[C@H]5C[C@@H](C(C)(C)C)[C@]36[C@@H](OC(=O)[C@@H]6O)O[C@@]4(C(=O)O5)[C@]21O (stereo partly drawn)	-11%
CC(C)Cn1cnc2c(N)nc3ccccc3c21	-12%&5%[10 µM]
COCC(=O)N1CCC(Oc2ccccc2C(=O)N2CCN(c3ccccn3)CC2)CC1	-7%
CCOC(=O)CC(NC(=O)CCc1c(C)nc2c(-c3ccccc3)c(C)nn2c1C)c1ccc(OC(C)C)cc1 (stereo not drawn)	-15%
CC(=O)C1CCC2(C)C3=C(CCC12C)C1(C)CCC(=O)C(C)(C)C1CC3 (stereo not drawn)	?
O=C1CCCCC(CNC(=O)C2(c3ccccc3)CC2)N1 (stereo not drawn)	3%
O=C1Cc2cc(S(=O)(=O)N3CCN(c4ccc(F)cc4)CC3)ccc2N1	-6%[39.2 µM]
CCCCNC(=O)CC1N=C2c3ccccc3N=C(SCC(=O)NCc3ccccc3Cl)N2C1=O (stereo not drawn)	-11%
Cc1cccc(C(=O)Nc2ccc(N3CCC(N4CCCCC4)CC3)c(C(=O)O)c2)c1	5µM*
COCCOC(=O)C1=C(C)NC(C)=C(C(=O)OC/C=C/c2ccccc2)C1c1cccc([N+](=O)[O-])c1 (stereo not drawn)	25%

Reprinted at random: five entries already listed, in no set order.
Structure	nsP2pro primary
CCOc1ccccc1NC(=O)c1c(NC(=O)Cc2ccc(OC)cc2)sc2c1CCC2	-12%
Cc1ccc(OCCn2c(CCNC(=O)c3ccc4cc[nH]c4c3)nc3ccccc32)cc1	-11%
COc1cc(F)c(-c2nccn2CC(O)c2ccccc2)cc1OC (stereo not drawn)	i
CC(C)(C)OC(=O)CC(=O)NNC(=O)c1nc2ccccc2[nH]1	i
COCC(=O)N1CCC(Oc2ccccc2C(=O)N2CCN(c3ccccn3)CC2)CC1	-7%

New compounds follow
Structure	nsP2pro primary
CN(C)C(=O)N1CCC(C(=O)N2CCC3(CC2)CC(=O)Nc2ccccc2O3)C1 (stereo not drawn)	-19%
O=S(=O)(c1ccccc1)c1cnc2c(N3CCNCC3)cccc2c1	-8%
CN1c2ccccc2C(=O)N2CCc3c([nH]c4ccccc34)C21 (stereo not drawn)	-3%
O=c1c2ccccc2nc2sc(NCc3ccc(Sc4ccccc4)cc3)nn12	i
Cc1cccc(C(=O)Nc2ccccc2SCc2cc(=O)c3cccc(C)c3[nH]2)c1	-16%
O=C(O)C1CCc2nnc(C3CCCN([S+](=O)([O-])c4cccc(C(F)(F)F)c4)C3)n21 (stereo not drawn)	-12%
C[C@@H](c1ccc2nccn2c1)n1nnc2ncc(-c3cnn(C)c3)nc21	39%
O=C(NCCc1ccccn1)C1CCCN(c2nc(-c3ccccc3)nc3c2CCC3)C1 (stereo not drawn)	1%
O=C1CCCCC(C(=O)N2CCOCC2)N1 (stereo not drawn)	i
CC(=O)O[C@H]1C(=O)[C@@]2(C)C([C@H](OC(=O)c3ccccc3)[C@]3(O)C[C@H](OC(=O)[C@H](O)[C@@H](NC(=O)c4ccccc4)c4ccccc4)C(C)=C1C3(C)C)[C@]1(OC(C)=O)CO[C@@H]1C[C@@H]2O (stereo partly drawn)	?
CSc1ccccc1-c1ccc(Nc2nc(-c3ccncc3)nc3ccccc23)cc1F	-9%
O=C(NCCN1CCCCC1)C1CN(S(=O)(=O)c2cccnc2)CC12CCCCC2 (stereo not drawn)	-5%
COc1cc(O)c(C(CC(=O)N2CCC(C)CC2)c2ccc3c(c2)OCO3)c(OC)c1 (stereo not drawn)	-10%
COC1CN(c2cccc(F)c2)C12CCN(C(=O)CC1CCCCC1)CC2 (stereo not drawn)	-5%

In the list so far, these contain a nitro group on carbon:
Structure	nsP2pro primary
COc1ccccc1-c1noc(-c2ccc(NCc3ccccc3)c([N+](=O)[O-])c2)n1	-25%
COCCOC(=O)C1=C(C)NC(C)=C(C(=O)OC/C=C/c2ccccc2)C1c1cccc([N+](=O)[O-])c1 (stereo not drawn)	25%
